TRPML1 blocker = qHTS for Inhibitors of the Human Mucolipin Transient Receptor Potential 1 (TRPML1); Mucolipin-1 (Homo sapiens), Q9GZU1; TRPML1-inducible cells, Ca2+ dye fluorescence, FDSS; stronger effect = lower value; inhibition of EC80 agonist-evoked calcium signal; activity change, negative = inhibition, % (no concentration beside the values); 390,000 tested, 0.02% active; AID 624415, 2012; in the data active means activity change below about -50%; inconclusive means about -30% to -50%; inactive means above about -30%;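 further: stimulus is agonist 54-4 at its EC80 concentration; on the % scale 0 is the no-effect control and ±100 the full control effect; compound concentration not given in the record; the text of the record puts the active cut at -80%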
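TRPML1-DL cells, Tet-induced overnight (~16 h, 37 °C) at 1,500 cells/well, were loaded with Ca8 no-wash dye plus quencher for 45-90 min at room temperature. Compounds were pinned during FDSS kinetic reading; agonist 54-4 at EC80 (4 uM final) then added.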
TRPV1 potentiator = HTS Assay for Compounds that Act as Potentiators of the Vanilloid Receptor 1; Transient receptor potential cation channel subfamily V member 1 (Homo sapiens), Q8NER1; TRPV1-expressing cells, Fluo-8 calcium influx, capsaicin EC20 potentiation; host cell line not named in the record; control for the full effect not named in the record; potentiation, % at 8.33 µM; 320,000 tested, 0.02% active; AID 540277, 2011; active means potentiation above 80%; inconclusive means 30% to 80%; inactive means below 30%; further: 0% is about no effect
Target sequence (Q8NER1 whole entry, looked up): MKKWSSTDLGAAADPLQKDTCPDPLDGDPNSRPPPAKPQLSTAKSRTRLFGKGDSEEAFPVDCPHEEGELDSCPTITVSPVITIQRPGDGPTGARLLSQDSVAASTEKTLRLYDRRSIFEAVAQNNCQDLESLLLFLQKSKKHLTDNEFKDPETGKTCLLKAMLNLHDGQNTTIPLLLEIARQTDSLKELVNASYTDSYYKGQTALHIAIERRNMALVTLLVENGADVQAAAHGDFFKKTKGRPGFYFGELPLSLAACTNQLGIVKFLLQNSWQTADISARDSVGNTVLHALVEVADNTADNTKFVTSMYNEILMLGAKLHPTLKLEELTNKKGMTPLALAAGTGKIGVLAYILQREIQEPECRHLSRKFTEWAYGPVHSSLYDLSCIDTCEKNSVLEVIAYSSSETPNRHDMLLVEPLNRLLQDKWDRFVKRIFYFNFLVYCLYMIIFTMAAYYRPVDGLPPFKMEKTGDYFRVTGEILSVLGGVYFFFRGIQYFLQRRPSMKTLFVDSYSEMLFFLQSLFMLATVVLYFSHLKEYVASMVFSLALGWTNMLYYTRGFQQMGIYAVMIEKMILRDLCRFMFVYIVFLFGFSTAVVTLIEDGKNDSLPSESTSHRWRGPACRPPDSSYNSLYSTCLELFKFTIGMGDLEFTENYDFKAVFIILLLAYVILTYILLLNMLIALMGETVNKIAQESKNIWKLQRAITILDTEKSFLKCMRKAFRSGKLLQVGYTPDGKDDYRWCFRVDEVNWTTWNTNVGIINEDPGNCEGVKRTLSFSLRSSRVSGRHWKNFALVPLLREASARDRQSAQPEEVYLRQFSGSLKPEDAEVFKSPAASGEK
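Cells expressing TRPV1 were dye-loaded with Fluo-8 and read kinetically: 10 s baseline, 3 min after compound (agonist portion), then 2 min after EC20 capsaicin (allosteric enhancer portion). Calcium-bound dye fluorescence at 480/520 nm.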
TRPML1 agonist = qHTS for Agonists of the Human Mucolipin Transient Receptor Potential 1 (TRPML1); Mucolipin-1 (Homo sapiens), Q9GZU1; TRPML1-expressing cells, Ca2+ dye fluorescence, FDSS; host cell line not named in the record; reference of the full effect not given here; activation, % (no concentration beside the values); 410,000 tested, 0.12% active; AID 624414, 2012; in the data active = activation above about 50%; inconclusive = about 30% to 50%; inactive = below about 30%; further: 0% is about no effect; the text of the record puts the active cut at 80%
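Agonist activity was taken from a 110 s kinetic Ca2+ dye read on the FDSS after pinning compounds onto TRPML1-DL cells. The cells were seeded at 1,500/well with Tet inducer, incubated about 16 h, then dye-loaded at room temperature.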
D2 PAM = Beta-Arrestin HTS for Positive Allosteric Modulators of the Human D2 Dopamine Receptor: Potentiators; D(2) dopamine receptor (Homo sapiens), P14416; DiscoveRx D2 beta-arrestin cells, luminescence, 90 min; 100% = 57 uM dopamine signal; potentiation, % (concentration not given with the values); 360,000 tested, 0.23% active; AID 624464, 2012; active = potentiation of 50% or more; inconclusive = 30% to 50%; inactive = 30% or less;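 further: compound concentration not given in the record; tested on top of an EC20 dose of dopamine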
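D2 cells co-treated with compound plus 50 nM dopamine (EC20) for 90 min at 37 deg C to detect potentiation. Beta-arrestin recruitment was read as enzyme-fragment luminescence after 1 h at ambient temperature. Full response was set by 57 uM dopamine.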
Six1-Eya2 blk = qHTS Assay for Inhibitors of the Six1/Eya2 Interaction; 360,000 tested, 0.56% active; Homeobox protein SIX1 (Homo sapiens) + Protein phosphatase EYA2 (Homo sapiens), …; activity change, % (test concentration not listed); AID 651725, 2012; AlphaScreen GST-Six1/His-Eya2 binding, biochemical; stronger effect = lower value; control for the full effect not named in the record; in the data active = activity change below about -65%; inconclusive = about -30% to -65%; inactive = above about -30%; further: on the % scale 0 is the no-effect control and ±100 the full control effect; compound concentration not given in the record
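Homogeneous AlphaScreen proximity assay pairing GST-Six1 with His-tagged Eya2 (added as 5X mix: 250 nM and 500 nM) in 50 mM Tris pH 8.0, 300 mM NaCl, 1 mM TCEP. Glutathione donor and nickel acceptor beads; 1 h, 37 °C, dark.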
CtBP-E1A inh = qHTS Assay for Inhibitors of the CtBP/E1A Interaction | CtBP / adenovirus E1A interaction (AlphaScreen) | AlphaScreen GST-E1A/His-CtBP binding, 1536-well; stronger effect = lower value; control for the full effect not named in the record | activity change, % (concentration not given with the values) | 340,000 tested, 0.49% active; in the data active means activity change below about -65%; inconclusive means about -30% to -65%; inactive means above about -30%; further: on the % scale 0 is the no-effect control and ±100 the full control effect
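Protein mix (5X: 125 nM each GST-E1A, His-CtBP) was incubated with pinned compound 2 h at 37 deg C in dark, in 50 mM Tris pH 8.0 buffer with 300 mM NaCl. Glutathione donor and nickel acceptor beads followed; AlphaScreen signal read after 1 h.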
The depositor's hits bear a star; · = no result given.

A first look, four compounds:
SMILES	TRPML1 blocker	CtBP-E1A inh	TRPML1 agonist	Six1-Eya2 blk	D2 PAM	TRPV1 potentiator
Cc1c(Cl)cccc1NC(=O)CNC(=O)c1ccc(F)cc1	20.2	-1.1	-0.5	1.3	10.7	7.3
O=C(Nc1nnc([C@@H]2C[C@H](O)[C@@H](CO)O2)s1)c1ccccc1Cl	·	0.1	-0.7	5.6	-0.2	·
Cc1cccc(/C=N/NC(=O)C[n+]2ccccc2)c1	-5.2	0.0	0.0	-3.5	-18.5	8.1
O=C(O)c1ccc2c(c1)C(=O)N(NC(=O)c1ccccc1)C2=O	94.4	56.4	0.3	18.7	-10.3	10.5

The list itself, previewed entries included:
SMILES	TRPML1 blocker	CtBP-E1A inh	TRPML1 agonist	Six1-Eya2 blk	D2 PAM	TRPV1 potentiator
Cc1c(Cl)cccc1NC(=O)CNC(=O)c1ccc(F)cc1	20.2	-1.1	-0.5	1.3	10.7	7.3
O=C(Nc1nnc([C@@H]2C[C@H](O)[C@@H](CO)O2)s1)c1ccccc1Cl	·	0.1	-0.7	5.6	-0.2	·
Cc1cccc(/C=N/NC(=O)C[n+]2ccccc2)c1	-5.2	0.0	0.0	-3.5	-18.5	8.1
O=C(O)c1ccc2c(c1)C(=O)N(NC(=O)c1ccccc1)C2=O	94.4	56.4	0.3	18.7	-10.3	10.5
Nc1cc(Cl)ccc1N1C(=O)CCC1=O	-2.0	·	-0.4	0.6	-3.2	-4.6
COC(=O)CCC(=O)Nc1sc2c(c1C#N)CCCC2	-14.5	-0.5	-0.8	-3.1	0.9	-12.0
COc1cc(S(=O)(=O)N2CCOCC2)ccc1NC(=O)COC(=O)CC12CC3CC(CC(C3)C1)C2	9.1	0.0	2.0	11.8	0.6	2.4
Cc1cc(NC(=O)c2ccc(S(=O)(=O)Nc3ccccc3)cc2)no1	26.8	-7.2	2.5	2.4	0.8	3.8
CC(C)Cc1nnc(NC(=O)c2cc(S(=O)(=O)N(C)C)ccc2N2CCCC2)s1	-15.1	-0.5	-0.2	0.4	5.1	6.2
COc1ccc(OC)c(NC(=O)CCC(=O)Nc2nnc(C(F)(F)F)s2)c1	-0.6	6.3	-0.9	0.0	-3.1	-2.7
Cc1ccc(C(=O)OCC(=O)N2CCC(c3ccccc3)=N2)cc1	12.2	8.2	-0.7	1.8	-5.8	·
CCCCCCc1c(C)c2ccc(OCC(=O)N[C@@H](Cc3ccccc3)C(=O)O)cc2oc1=O	·	-0.9	·	-7.3	12.0	-8.7
CCCCn1c(N)c(N(CCOC)C(=O)Cn2c(=O)oc3ccccc32)c(=O)[nH]c1=O	9.2	-2.8	0.2	9.1	2.1	-7.9
O=C(c1cc2nc(C3CC3)cc(C(F)F)n2n1)N1CCOCC1	-12.3	2.8	0.5	-7.3	-15.0	-2.6
CC(C)CC(=O)N1CCN(Cc2ccccc2[N+](=O)[O-])CC1	6.2	18.5	0.3	5.2	-7.3	2.4
Cn1ccnc1C1CCCCN1Cc1nc(-c2ccc3c(c2)OCO3)no1 (stereo not given)	3.3	1.8	-0.1	1.4	-10.9	-2.7
O=[N+]([O-])c1ccc(-c2csc(N3CCCCCC3)n2)cc1	1.4	5.4	-0.3	-10.3	2.4	-7.2
CCNC(=O)c1ccc(-n2nc(C(F)(F)F)c3c2CCCC3)cc1	1.3	4.5	-0.7	2.6	-17.3	-8.0
CC1(C)CC2CC(C)(CN2C(=S)Nc2ccccc2)C1 (stereo not given)	-7.9	2.2	-0.8	-5.5	-2.3	17.0
CN(CC(=O)N1CCCCCC1)S(=O)(=O)c1ccc(F)cc1	-9.1	4.0	-0.4	-3.4	-3.3	0.2

Carrying on.
SMILES	TRPML1 blocker	CtBP-E1A inh	TRPML1 agonist	Six1-Eya2 blk	D2 PAM	TRPV1 potentiator
COc1ccccc1NC(=O)C(=O)N/N=C/c1ccc([N+](=O)[O-])s1	-3.1	-7.0	-0.1	4.8	1.7	5.6
O=C(Cc1cc(=O)[nH][nH]1)N/N=C/c1ccccc1Cl	2.5	-2.7	-0.2	-1.3	2.5	-8.0
COc1ccc(C2CC(c3cccs3)=NN2S(=O)(=O)c2ccc(C)cc2)cc1 (stereo not given)	3.5	-7.5	-0.5	-4.0	-15.5	·
CCCc1nc2ccc(Br)cn2c1Cc1cccc(Cl)c1	15.4	-2.4	1.0	3.2	-6.4	·
CC/C(=N\NC(=O)c1ccncc1)C12CC3CC(CC(C3)C1)C2	3.3	-3.5	-0.2	-2.6	-2.1	-19.5
Cc1cccc(C)c1NC(=O)COc1cccc(/C=N/NC(=O)C(=O)NCc2ccccc2)c1	8.7	5.4	0.3	3.8	11.9	4.8
Cc1cccc(N2C(=O)CC(Cn3nc(C)cc3C)C2=O)c1 (stereo not given)	58.2	·	-0.9	-2.9	-26.6	7.7
O=C(N/N=C/c1ccc2c(c1)OCO2)c1cc(-c2ccccc2)nc2ccccc12	-16.5	-6.3	1.9	-20.9	7.4	20.3
COc1ccc(NC(=O)c2cnc(SCC(=O)NCCc3ccccc3)n(C)c2=O)cc1	6.7	3.4	0.0	0.4	-5.7	2.8
O=C(O)c1nn(-c2ccc(F)cc2)ccc1=O	22.8	-2.3	-0.9	7.0	-8.2	12.0
O=C(CSc1nc2ccc(Nc3nc(N4CCOCC4)nc(N4CCOCC4)n3)cc2s1)NCc1ccco1	-8.6	-2.6	0.0	-6.3	4.2	-32.4
CCNC(=O)c1sc(-c2ccccc2)nc1C	2.1	3.3	-1.2	1.8	5.7	-13.2
Cc1cc2c(OCC(O)CN3CCCC3)cccc2[nH]1 (stereo not given)	3.3	-14.6	0.1	9.6	-31.5	6.5
C[C@H](CO)N1C[C@H](C)[C@@H](CN(C)S(=O)(=O)c2ccc(F)cc2)Oc2c(NC(=O)NC3CCCCC3)cccc2C1=O	4.1	-5.4	0.1	-3.2	-7.0	·
COc1ccc(-c2ccc3sc4ccccc4c(=O)c3c2)cn1	-1.3	6.4	-0.7	7.5	-4.8	·
O=C(CNC(=O)C1CCCCC1)OCC(=O)c1ccc(Cl)s1	1.2	7.3	-0.5	0.7	-6.1	6.7
O=C1OC(Sc2ccccc2)(c2ccccc2)c2ccccc21 (stereo not given)	45.8	4.0	1.1	5.2	0.6	·
O=C(Nc1ccc(-c2cn3c(n2)SCC3)cc1)c1ccc2ccccc2n1	-3.1	-6.8	-0.1	-27.8	-1.3	-5.2
COc1ccc(S(=O)(=O)CCC(=O)N2CCN(c3ccccc3F)CC2)cc1	5.4	·	-0.4	-0.4	-4.8	-12.4
O=[N+]([O-])c1ccccc1S(=O)(=O)N1CCCC(C(F)(F)F)C1 (stereo not given)	8.7	-18.4	1.1	-9.3	-15.8	-3.2

Individual results from above:
COc1ccccc1NC(=O)C(=O)N/N=C/c1ccc([N+](=O)[O-])s1 | Six1-Eya2 blk = 4.8
C[C@H](CO)N1C[C@H](C)[C@@H](CN(C)S(=O)(=O)c2ccc(F)cc2)Oc2c(NC(=O)NC3CCCCC3)cccc2C1=O | TRPML1 blocker = 4.1

Remaining list, next part:
SMILES	TRPML1 blocker	CtBP-E1A inh	TRPML1 agonist	Six1-Eya2 blk	D2 PAM	TRPV1 potentiator
Cn1cc(/C=C(\NC(=O)c2ccccc2Cl)C(=O)N2CCOCC2)c2ccccc21	-7.8	1.9	-0.6	3.4	-2.6	-1.0
NS(=O)(=O)c1ccc(NC(=O)Cc2cccs2)cc1	-19.2	-1.7	-0.2	-10.1	-2.2	5.5
O=C1N/C(=N/c2ccccn2)SC1Cc1ccccc1 (stereo not given)	-2.4	10.7	1.1	4.3	-7.4	9.0
CC(=O)N1CCOc2ccc(S(=O)(=O)N3CCC(C(=O)Nc4ccc(F)cc4)CC3)cc21	-1.1	-2.0	-0.8	-0.4	-10.4	-3.1
Cc1cc(O)ccc1NC(=S)NC(=O)c1cncc(Br)c1	·	·	·	-2.5	-9.8	6.1
O=c1c2oc3ccccc3c2[nH]c(=S)n1-c1ccc(F)cc1	-1.3	7.9	0.2	-2.3	-8.8	26.5
COc1ccc(CC(=O)Nc2nc(C)cs2)cc1S(=O)(=O)N1CCOCC1	2.7	0.0	-0.6	17.9	-2.4	10.2
COc1ccc(CN2CC(C(=O)NCCCOC(C)C)CC2=O)cc1 (stereo not given)	1.0	4.6	-0.3	0.6	-0.5	-18.7
CC(C)NC(=O)C(=O)N/N=C/c1ccco1	-2.4	10.0	-0.3	4.3	-6.1	-6.1
CCOC(=O)C(Sc1ncn[nH]1)c1ccccc1 (stereo not given)	2.5	17.0	-0.7	8.6	-18.7	0.9
Cc1nc(NC(=O)COc2ccccc2)sc1C(=O)Nc1cccc(Cl)c1	-4.6	4.4	0.0	-3.1	2.9	-31.1
CCOc1ccc(/C(CC)=N/NC(=O)C2(C)CC2(Br)Br)cc1 (stereo not given)	9.9	-9.5	-0.2	0.0	-17.5	-18.8
O=C(c1cc(-c2ccc(Br)cc2)on1)N1CCOCC1	-4.8	0.1	0.3	4.9	-6.2	-17.2
COc1ccc(CCNC(=O)CCS(=O)(=O)c2ccc(C)cc2)cc1OC	-17.5	2.7	-0.1	4.8	-2.2	-0.7
CC1CCC(NC(=O)COC(=O)CNC(=O)c2ccc3ccccc3c2)CC1 (stereo not given)	-2.3	·	0.3	-0.4	-1.1	-14.0
Cc1cc(C)c2c(c1)C1(OCCO1)C(=O)N2	-5.1	9.9	-0.4	4.1	-6.9	-3.4
C#CCOCCOCCOCCNc1nc(N2CCN(C(=O)Cn3cc(CCO)nn3)CC2)nc(N2CCN(C(=O)Cn3cc(CCCCN)nn3)CC2)n1	-0.2	4.5	1.4	3.4	-1.9	·
COCCN(C(=O)c1csnn1)C(C(=O)NC1CCCCC1)c1ccccc1F (stereo not given)	31.0	6.2	0.5	8.4	-8.3	11.0
CCOc1cc(NC(=S)NCC2CCCO2)c(OCC)cc1NC(=O)CC (stereo not given)	0.3	-3.3	1.7	7.0	-12.0	3.4
Cc1ccc(C(=O)c2c(NC(=O)c3ccccc3)sc(C)c2C)cc1	49.2	-17.0	-0.4	-21.3	-10.6	-7.0
O=C(NCCc1c[nH]c2ccccc12)C(=O)NCC1OCCN1S(=O)(=O)c1ccccc1 (stereo not given)	-5.0	-5.5	0.7	2.0	-3.4	8.4
CC1(C(=O)NS(=O)(=O)Cc2cccc(Cl)c2)CCN1C(=O)CCc1ccccc1 (stereo not given)	·	5.5	-0.1	0.4	0.0	·

From PubChem
